Screening results deposited in PubChem by Broad Institute.
DUX4 inh: blocks DUX4-driven transcriptional activation | activity change, negative = inhibition, % (no concentration beside the values) | 293T-iDUX4 ZSCAN4-Gaussia luciferase reporter, 24 h; hits give low values | actives 0.8% (n = 37,000) | AID 1224904;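 active = -10% or lower and over 25 points stronger than a control reporter; inconclusive = -10% or lower with a smaller gap; inactive = above -10%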;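 also: 0% = median of neutral control wells and -100% = median of positive control wells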
DUX4 inh difference: recorded beside DUX4 inh, whose call it bears; Gaussia minus Italica difference, %; measured here: selective DUX4 reporter inhibition;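 worked out from the two reporters; negative = selective loss of the DUX4 reporter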
DUX4 inh control: also measured in DUX4 inh; calls as there; activity change, negative = inhibition, %; measured here: Italica tet-on control reporter;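 0 = neutral control and -100 = positive control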
* marks the source's active call; other numbers are inactive results; ? = inconclusive; . = no result given; & = joins results of further samples. This is a subset, so the mix of outcomes need not match the whole.

SMILES	DUX4 inh	DUX4 inh difference	DUX4 inh control
CCCNC(=O)Nc1ccc2c(c1)C(=O)N(C)[C@H]1CC[C@H](CC(=O)NC)O[C@H]1CO2	8.1	4.1	3.9
O=C(C[C@H]1CC[C@H]2[C@@H](COC[C@H](O)CN2CC2CCOCC2)O1)NCC1CCCCC1	0.7	-12.6	13.3
COc1ccccc1-c1ccc([C@H]2[C@@H](C#N)N[C@@H]2CO)cc1	0.7	0.5	0.2
COc1ccc2c3c(n(C)c2c1)[C@H](CO)N(Cc1ccccc1OC)CC31CN(C)C1	-6.1	1.2	-7.2
O=C(C[C@H]1CC[C@@H]2[C@H](COC[C@H](O)CN2Cc2ccccc2F)O1)N1CCc2ccccc2C1	?	.	.
O=C(Nc1ccc(C(F)(F)F)cc1)N1[C@@H]2CNC[C@H]1C2c1ccc(-c2ccccc2)cc1 (stereo partly drawn)	9.3&-3.7	14.3&5.6	-5.0&-9.3
O=C(Cc1ccccn1)N1CC2(C1)[C@H](c1ccccc1)[C@H](CO)N2C(=O)c1ccncc1	-0.9	1.6	-2.5
C[C@H](CO)N1C[C@H](C)[C@@H](CN(C)CC2CCCCC2)Oc2ccc(NC(=O)Nc3ccccc3)cc2CC1=O	0.9	1.4	-0.6
C[C@H]1CN([C@@H](C)CO)C(=O)c2ccccc2-c2ccccc2CO[C@H]1CN(C)CC1CC1	6.4	-5.7	12.1
COc1cc(CN2C[C@@H]3N[C@H](C2)C3c2ccc(-c3cccc(OC)c3)cc2)cc(OC)c1 (stereo partly drawn)	?	.	.
N#C[C@@H]1[C@H](c2ccccc2)[C@H](CO)N1S(=O)(=O)c1ccc(-c2ccccc2)cc1	4.0	4.2	-0.2
OC[C@H]1[C@@H](c2ccccc2)C2(CN(CCC(F)(F)F)C2)N1Cc1cncnc1	-6.8	-15.9	9.1
O=C(NC1CCCCC1)[C@H]1[C@H](CO)[C@H]2Cn3c(cccc3=O)[C@@H]1N2CC1CCCCC1	-4.4	-5.2	0.8
CCS(=O)(=O)Nc1ccc2c(c1)C(=O)N(C)C[C@@H](OC)[C@@H](C)CN(C(=O)CN(C)C)[C@H](C)CO2	3.9	1.9	2.1
CN1CCCCN2[C@H](CO)[C@H](c3ccc(-c4cccnc4)cc3)[C@@H]2C1	7.8	-11.3	19.0
Cc1ccccc1NC(=O)C[C@H]1CC[C@H]2[C@@H](COc3ccc(NC(=O)c4ccc(Cl)cc4)cc3C(=O)N2C)O1	-2.0	0.5	-2.6
COc1ccccc1CN1[C@H](CO)[C@H](c2ccccc2)C12CN(C(C)=O)C2	3.4	0.3	3.1
CN(C)C(=O)c1ccc(-c2ccc([C@H]3[C@H]4CN(C(=O)C5CC5)CCCCN4[C@H]3CO)cc2)cc1	28.4	22.5	5.9
CCCNC(=O)N1[C@H](C#N)[C@H](c2ccccc2-c2ccc(C)cc2)[C@@H]1CO	-6.5	-1.7	-4.8
O=C(c1ccc2c(c1)OCO2)N1CC(=O)N2[C@H](CO)[C@H](c3ccc(C#CC4CCCC4)cc3)[C@@H]2C1	?	.	.
O=C(C1CCC1)N1CC2(C1)[C@H](c1ccccc1)[C@H](CO)N2Cc1ccc(Cl)cc1	?	.	.
CO[C@@H]1CN(C)C(=O)c2ccc(NC(=O)Nc3cc(F)ccc3F)cc2OC[C@@H](C)N(C)C[C@@H]1C	-8.2	-6.2	-2.0
CCCNC(=O)Nc1ccc2c(c1)OC[C@@H](C)N(Cc1cncnc1)C[C@@H](C)[C@@H](OC)CN(C)C2=O	3.3	1.3	2.0
CN1c2ccc(-c3cccc(C#N)c3)cc2[C@H]2[C@H](CCN2S(=O)(=O)c2ccccc2)[C@@H]1CO	?	.	.
O=C([C@H]1N[C@H]2c3ccc(-c4ccc(F)cc4)c(=O)n3C[C@H]2[C@@H]1CO)N1CCOCC1	-2.7	-5.7	2.9

Given as labelled records: two of the compounds above
CCS(=O)(=O)Nc1ccc2c(c1)C(=O)N(C)C[C@@H](OC)[C@@H](C)CN(C(=O)CN(C)C)[C@H](C)CO2
- DUX4 inh = 3.9
- DUX4 inh difference = 1.9
- DUX4 inh control = 2.1

CCCNC(=O)N1[C@H](C#N)[C@H](c2ccccc2-c2ccc(C)cc2)[C@@H]1CO
- DUX4 inh = -6.5
- DUX4 inh difference = -1.7
- DUX4 inh control = -4.8

(cont.)
SMILES	DUX4 inh	DUX4 inh difference	DUX4 inh control
CN1C(=O)c2cc(NC(=O)Nc3ccc(F)cc3)ccc2OC[C@H]2O[C@H](CC(=O)NC3CCC3)CC[C@H]21	-6.4	-5.3	-1.1
O=C(C[C@@H]1C[C@H]2c3cc(NC(=O)Cc4ccncc4)ccc3O[C@H]2[C@@H](CO)O1)NCc1cccc(F)c1	3.8	-0.4	4.2
CC(=O)NC[C@H]1[C@H](c2ccc(-c3ccccc3)cc2)[C@H](CO)N1C(=O)C1CCC1	-0.7	1.2	-2.0
COc1cccc(-c2ccc3c(c2)[C@@H]2[C@@H](CCN2C(=O)C2CCCCC2)[C@H](CO)N3)c1	?	.	.
O=C(c1ccncc1)N1C[C@H]2[C@@H](c3ccccc31)[C@@H](CO)N2C(=O)CN1CCOCC1	-3.2	1.1	-4.2
CC(C)NC(=O)N1CCCCN2[C@H](CO)[C@H](c3ccc(C#C[C@H](C)O)cc3)[C@H]2C1	19.3	0.1	19.2
O=C(C[C@@H]1CC[C@H]2[C@@H](COC[C@@H](O)CN2C(=O)Nc2ccccc2)O1)NC1Cc2ccccc2C1	5.2	9.4	-4.2
CN1C(=O)c2cc(NC(=O)c3cccc(F)c3)ccc2OC[C@H]2O[C@@H](CC(=O)NCC3CCCCC3)CC[C@@H]21	0.3&1.7	-2.7&1.7	3.0&-0.1
CC(C)NC(=O)N1C[C@@H]2[C@H](c3ccccc31)[C@@H](CO)N2Cc1ccccc1	-0.1	0.3	-0.3
Cc1ccccc1S(=O)(=O)N1CC[C@H]2[C@H](CO)Nc3ccc(-c4ccc(F)cc4)cc3[C@H]21	12.5	12.0	0.5
CCCNC(=O)C[C@@H]1C[C@H]2c3cc(NC(=O)COC)ccc3O[C@H]2[C@@H](CO)O1	9.5	0.4	9.0
CO[C@@H]1CN(C)C(=O)c2ccc(NS(C)(=O)=O)cc2OC[C@@H](C)N(C(=O)CN(C)C)C[C@@H]1C	1.3	-2.0	3.3
COCC(=O)N1CC2(C1)[C@@H](c1ccc(-c3ccc(F)cc3)cc1)[C@H](CO)N2C(=O)C1CC1	15.0	15.6	-0.6
COc1ccc2c3c(n(C)c2c1)[C@@H](CO)N(Cc1nccs1)CC31CCN(C(=O)CC2CC2)CC1	?	.	.
C[C@@H]1CCCCO[C@H](CN(C)S(=O)(=O)c2cccs2)[C@H](C)CN([C@H](C)CO)C(=O)c2cc(NC(=O)c3ccccc3)ccc2O1	7.7	3.2	4.6
COCC(=O)N1C[C@@H](C)[C@@H](OC)CN(C)C(=O)c2cc(NC(=O)c3ccc(OC)cc3)ccc2OC[C@H]1C	-4.1	6.3	-10.4
CO[C@@H]1CN(C)C(=O)c2cc(NC(=O)CC(F)(F)F)ccc2OC[C@H](C)N(CC2CC2)C[C@H]1C	-6.3	-11.8	5.5
COCCNC(=O)C[C@@H]1C[C@@H]2c3cc(NC(=O)Nc4ccc(C(F)(F)F)cc4)ccc3O[C@@H]2[C@H](CO)O1	-7.6	-4.2	-3.4
CO[C@@H]1CC[C@@H]2CCOc3c(C#N)cccc3C(=O)N(C)C[C@H](c3ccccc3)CC(=O)N(C)C[C@H]1O2	1.7	-3.4	5.0
COc1ccc2c3c([nH]c2c1)[C@@H](CO)NCC31CN(S(=O)(=O)c2cccc(C)c2)C1	4.9	8.7	-3.8
COc1ccc(S(=O)(=O)Nc2ccc3c(c2)C(=O)N([C@@H](C)CO)C[C@@H](C)[C@H](CN(C)C(=O)c2ccncc2)OCCCC[C@H](C)O3)cc1	-3.0	-5.7	2.7
CCCC#Cc1cnc2c(c1)C(=O)N([C@@H](C)CO)C[C@H](C)[C@H](CN(C)S(=O)(=O)c1cccc(OC)c1)O2	-3.9	-6.1	2.2
N#C[C@H]1[C@H](c2ccc(-c3ccccc3)cc2)[C@H](CO)N1C(=O)Cc1ccccc1	5.2	1.6	3.6
C[C@@H](NC(=O)C[C@H]1CC[C@H]2[C@@H](COC[C@H](O)CN2C(=O)Nc2cc(Cl)cc(Cl)c2)O1)c1ccccc1	-4.8	0.0	-4.8
CNC[C@@H]1OCCCC[C@@H](C)Oc2ccc(NS(=O)(=O)c3cn(C)cn3)cc2C(=O)N([C@H](C)CO)C[C@H]1C	1.1	0.5	0.6

Three structures out of the list, ordered by molecular weight, rising.
SMILES	DUX4 inh	DUX4 inh difference	DUX4 inh control
CC(C)NC(=O)N1CCCCN2[C@H](CO)[C@H](c3ccc(C#C[C@H](C)O)cc3)[C@H]2C1	19.3	0.1	19.2
COc1ccc2c3c(n(C)c2c1)[C@@H](CO)N(Cc1nccs1)CC31CCN(C(=O)CC2CC2)CC1	?	.	.
CN1C(=O)c2cc(NC(=O)Nc3ccc(F)cc3)ccc2OC[C@H]2O[C@H](CC(=O)NC3CCC3)CC[C@H]21	-6.4	-5.3	-1.1

Next section
SMILES	DUX4 inh	DUX4 inh difference	DUX4 inh control
O=C(NC[C@@H]1[C@H](c2ccccc2)[C@H](CO)N1C(=O)C1CC1)NC1CCCC1	4.4	1.2	3.2
C[C@@H]1CN([C@@H](C)CO)C(=O)c2cccc(NC(=O)C3CCOCC3)c2O[C@H]1CN(C)Cc1ccncc1	-1.7	0.4	-2.1
CCN1[C@H](C(=O)N(C)C)[C@@H](CO)[C@@H]2Cn3c(ccc(-c4cccc(OC)c4)c3=O)[C@@H]21	1.4	3.4	-2.0
CCS(=O)(=O)Nc1ccc2c(c1)C(=O)N(C)[C@@H]1CC[C@H](CC(=O)NC)O[C@H]1CO2	1.4	-1.3	2.7
CCCN1[C@H](C(=O)N2CCOCC2)[C@@H](CO)[C@@H]2Cn3c(ccc(-c4ccccc4)c3=O)[C@@H]21	-1.8	-12.2	10.4
O=S(=O)(c1ccc(F)cc1)N1CCCCN2[C@@H](CO)[C@@H](c3ccc(C#CC4CC4)cc3)[C@@H]2C1	?	.	.
COCCN(C[C@H]1N[C@H](CO)[C@@H]1c1ccc(-c2ccc(F)cc2)cc1)C(C)=O	2.0	-2.3	4.3
COC(=O)[C@@H]1[C@@H](CO)[C@@H]2Cn3c(ccc(-c4ccccc4F)c3=O)[C@@H]2N1C(=O)c1ccccn1	-0.4	4.3	-4.7
CCNC(=O)C[C@H]1CC[C@H]2[C@H](COc3ccc(NC(C)=O)cc3C(=O)N2C)O1	0.8	0.1	0.6
COc1ccc([C@@H]2CC=CC[C@@H](C)Oc3ccccc3C(=O)N(C)[C@@H](C)C(=O)N2)c(OC)c1 (mixture of isomers)	1.8	1.4	0.4
CN1C(=O)c2cc(NC(=O)Nc3ccc(F)cc3)ccc2OC[C@@H]2O[C@H](CC(=O)NC3CCC3)CC[C@@H]21	-2.6	0.2	-2.8
Cc1ccc(S(=O)(=O)NCC[C@@H]2CC[C@@H](NC(=O)CCN3CCCCC3)[C@@H](CO)O2)cc1	-4.4	-7.9	3.5
CO[C@H]1CC[C@@H]2CCOc3ccc(C#N)cc3C(=O)N(C)C[C@H](C)C(=O)N(C)C[C@H]1O2	8.9	19.0	-10.1
C[C@@H]1CN([C@H](C)CO)C(=O)CCCn2nncc2CO[C@@H]1CN(C)C(=O)c1ccc2ccn(C)c2c1	1.6	1.2	0.4
C[C@H](CO)N1C[C@H](C)[C@H](CN(C)C(=O)C2CC2)OCc2cn(nn2)CCCC1=O	-5.6	-5.2	-0.4
COc1ccc2c3c(n(C)c2c1)[C@H](CO)NCC31CN(S(=O)(=O)c2ccccc2)C1	7.9	1.5	6.4
O=C(NCc1ccc2c(c1)OCO2)[C@H]1[C@H](CO)[C@H]2Cn3c(cccc3=O)[C@@H]1N2Cc1ccncc1	2.4	-0.3	2.7
CCN(C[C@@H]1N[C@H](CO)[C@H]1c1ccc(-c2ccccc2)cc1)C(=O)COC	-1.3	0.7	-2.1
CO[C@@H]1CN(C)C(=O)c2ccc(NC(=O)NC(C)C)cc2OC[C@@H](C)N(Cc2ccccn2)C[C@H]1C	0.7	1.3	-0.6
C[C@@H]1CN([C@@H](C)CO)C(=O)c2ccccc2-c2ccccc2CO[C@@H]1CN(C)S(=O)(=O)c1ccc([N+](=O)[O-])cc1	-3.0	6.3	-9.3
O=C(NCC[C@H]1CC[C@H](NC(=O)c2cnccn2)[C@H](CO)O1)c1ccc2c(c1)OCO2	-0.9	-0.5	-0.3
O=C1CN(S(=O)(=O)c2ccccc2)C[C@@H]2[C@H](c3ccc(C4=CCCC4)cc3)[C@@H](CO)N12	2.9	-7.5	10.4
CCCNC(=O)N1C[C@H](O)COC[C@H]2O[C@H](CC(=O)N3CCC(Cc4ccccc4)CC3)CC[C@@H]21	5.7	7.5	-1.8
O=C(C[C@@H]1CC[C@H]2[C@@H](COC[C@@H](O)CN2Cc2cccc(C(F)(F)F)c2)O1)NCCc1ccccc1	-9.5	-7.4	-2.1
COc1ccc2c3c(n(C)c2c1)[C@H](CO)N(C(=O)Nc1ccccc1F)CC31CCN(C(=O)c2ccccc2)CC1	?	.	.
COc1ccc2c3c([nH]c2c1)[C@H](CO)N(C(=O)c1ccc(F)cc1)CC31CCN(Cc2cccnc2)CC1	8.1	-3.9	12.0
CNC[C@H]1Oc2ccc(NC(=O)c3ccncc3)cc2CC(=O)N([C@@H](C)CO)C[C@@H]1C	1.6	-1.5	3.1
O=C(C[C@H]1CC[C@@H]2[C@H](COC[C@@H](O)CN2C(=O)c2ccncc2)O1)Nc1ccc(-c2ccccc2)cc1	5.0	11.0	-6.0
CCCNC(=O)C[C@H]1CC[C@@H]2[C@H](COC[C@H](O)CN2C(=O)Nc2cccc(Cl)c2)O1	1.0	-9.7	10.6
CCC(=O)N1C[C@H](C)[C@H](OC)CN(C)C(=O)c2ccc(NC(=O)C3CCOCC3)cc2OC[C@H]1C	3.7	2.7	1.0
